Screening data as filed in PubChem.
MLL AF4-AF9 inh = inhibitors of human MLL-AF4/AF9 interaction; P42568; AlphaScreen, biotin-AF4 peptide binding to FLAG-AF9; inhibition, % at 10 µM; 0.47% of 350,000 active; AID 651704;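 active means every replicate reaching a set inhibition limit, whatever the replicate mean, cut at about 25% in these data; inconclusive means mean inhibition reaches that limit but some replicates miss it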;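 further: 0% = plate neutral control median and 100% = total signal loss; the record names both 10 and 1 µM as test concentration; the first replicate is given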
Target sequence (P42568 whole entry, looked up): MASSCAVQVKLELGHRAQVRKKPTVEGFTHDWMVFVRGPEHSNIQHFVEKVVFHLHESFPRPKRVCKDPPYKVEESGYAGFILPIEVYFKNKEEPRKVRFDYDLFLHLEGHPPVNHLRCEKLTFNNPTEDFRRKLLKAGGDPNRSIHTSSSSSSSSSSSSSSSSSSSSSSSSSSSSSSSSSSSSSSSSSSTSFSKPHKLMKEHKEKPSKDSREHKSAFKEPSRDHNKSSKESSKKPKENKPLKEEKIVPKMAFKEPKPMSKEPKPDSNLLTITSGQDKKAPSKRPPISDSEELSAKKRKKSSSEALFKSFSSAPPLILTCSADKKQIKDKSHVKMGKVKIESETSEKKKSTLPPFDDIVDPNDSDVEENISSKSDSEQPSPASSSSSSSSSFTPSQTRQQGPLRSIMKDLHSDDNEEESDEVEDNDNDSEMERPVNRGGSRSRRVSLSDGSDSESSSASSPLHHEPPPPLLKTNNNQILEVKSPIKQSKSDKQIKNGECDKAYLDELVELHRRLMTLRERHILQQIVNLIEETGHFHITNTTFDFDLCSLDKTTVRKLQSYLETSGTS
RanGTP-Impb inh = inhibitors of RanGTP-importin-beta interaction, primary screen, biochemical, FRET, CFP-Ran, YFP-importin-beta, homogeneous; 1.1% of 300,000 active; inhibition, % (no concentration beside the values); cell-free CFP-Ran/YFP-importin-beta FRET ratio; AID 2216;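 active means most replicates above 15%; inconclusive means exactly half above 15%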;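 further: 0% = DMSO wells and 100% = Ran loaded with GDP instead of GTP; wells of about 40 µL received 100 nL stock; the first replicate is given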
T cruzi inh = T. cruzi replication inhibition; 1.4% of 300,000 active; AID 1885; inhibition, % (concentration not given with the values); T. cruzi beta-gal in NIH3T3, luminescence, 90 h;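 active means mean inhibition across valid replicates above about 55%, limit read from the data; inconclusive means mean below that limit but half or more replicates reach it; inactive means mean below it, under half of replicates reach it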;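 further: signal also drops with host cell toxicity which is not excluded here; 0% = plate median of DMSO wells and 100% = zero luminescence signal; higher percent means less beta-gal luminescence so fewer parasites; stock transfer was 50 nL into about 50 µL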
FGF22 binding = shifts melting point of recombinant human FGF22; recombinant FGF22 thermal shift, SYPRO orange fluorescence; percent of sucrose octasulfate shift, DMSO zero; calls only at 9.99 µM; 1.5% of 340,000 active;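 active means melting point raised past a set limit in the mean and every replicate; inconclusive means no clear call; three in four hits are not shown here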
Target sequence (Q9HCT0 whole entry, looked up): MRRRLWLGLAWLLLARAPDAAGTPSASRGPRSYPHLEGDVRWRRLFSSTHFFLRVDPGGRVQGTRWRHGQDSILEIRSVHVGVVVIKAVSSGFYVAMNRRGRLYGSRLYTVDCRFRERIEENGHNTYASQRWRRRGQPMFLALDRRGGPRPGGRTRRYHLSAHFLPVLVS
Calb FLC = C. albicans growth modulation with fluconazole; C. albicans CaCi-2 (fluconazole-resistant clinical isolate) + fluconazole, Alamar Blue growth, 48 h; growth inhibition, % (concentration not given with the values); 0.57% of 300,000 active; AID 1979;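 active means most replicates above 75%; inconclusive means exactly half above 75%; inactive means most below 75%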;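 further: all wells also contain fluconazole at 8 µg/ml as a sub-toxic cotreatment; 0% = median of DMSO wells and 100% = median of geldanamycin control wells; wells of about 8 µL received 7.5 nL stock; the first replicate is given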
Ecoli rRNA inh = inhibitors of bacterial rRNA selective over humanized ribosomes; E. coli WT GFP vs humanized-ribosome RFP mutants, fluorescence, 24 h; active compounds read low; DMSO median 0, no signal -100; GFP signal change (wild-type ribosome), % (test concentration not listed); 1.6% of 350,000 active; AID 720706;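 active means significant combined selectivity score with lowered wild-type GFP, culture density cut under 30%, mutant RFP and density less affected; inactive means any of these conditions unmet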; further: one replicate is shown; some compounds called inactive have numbers as strong as hits
ALR H2O2 inh = inhibitors of human sulfhydryl oxidase ALR | purified ALR, DTT oxidation, H2O2 HRP-luminol luminescence | inhibition, % (no concentration beside the values) | 3.8% of 290,000 active;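 active means mean and each replicate at 75% or more; inconclusive means only one of the two met; inactive means neither met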;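 further: stock transfer was 7.5 nL into about 7.5 µL; 0% = neutral wells and 100% = wells with inactivated enzyme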
Target sequence (P55789 whole entry, looked up): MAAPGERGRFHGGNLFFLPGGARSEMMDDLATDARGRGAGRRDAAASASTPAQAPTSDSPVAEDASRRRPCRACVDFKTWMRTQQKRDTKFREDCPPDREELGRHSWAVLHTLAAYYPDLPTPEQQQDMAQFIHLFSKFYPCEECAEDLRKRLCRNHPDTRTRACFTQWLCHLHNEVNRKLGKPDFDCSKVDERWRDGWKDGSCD
Beta cell apopt = beta cell apoptosis inhibition; INS-1E cytokine-induced death, ATP luminescence, 48 h; percent of positive-control rescue, neutral wells zero; protection from apoptosis, % (test concentration not listed); 0.8% of 300,000 active;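 active means all replicates at 75% or more, or half of them and the mean; inconclusive means half reach 75% but not the mean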;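 further: 0% = cytokine-treated negative control wells and 100% = positive control rescue; higher means more ATP so stronger rescue from cytokine killing; wells of about 40 µL received 100 nL stock; the first replicate is given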
Ecoli rRNA inh OD600 = further read-out of Ecoli rRNA inh, marked with its call; OD600 change, %; measured here: OD600 growth;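 optical density of the mix in the first replicate; 0 = DMSO median and -100 = no signal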
Ecoli rRNA inh RFP = also measured in Ecoli rRNA inh; calls as there; RFP signal change, %; measured here: RFP humanized mutant strains;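 first replicate; 0 = DMSO median and -100 = no signal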
An asterisk follows results filed as active; i = inactive; ? = inconclusive; . = no result given. These rows are one share of the data (hit frequency here may not be typical).

SMILES	MLL AF4-AF9 inh	RanGTP-Impb inh	T cruzi inh	FGF22 binding	Calb FLC	Ecoli rRNA inh	Ecoli rRNA inh OD600	Ecoli rRNA inh RFP	ALR H2O2 inh	Beta cell apopt
O=C(CSC1=NCCS1)Nc1ccc(S(=O)(=O)NC2CCCCC2)cc1	.	4.9	-16	.	5	.	.	.	98*	-6
C/C(=N/NC(=O)CNC(=O)COc1cccc(C)c1)c1ccc(Cl)cc1	-5.7	1.4	-2	i	-24	8	11	-4.2	-1	-7
CCOC(=O)c1cccc(NS(=O)(=O)c2ccc(NC(C)=O)cc2)c1	.	0.4	-37	.	1	.	.	.	1	19
COc1ccc(NC(=O)/C(C#N)=C/c2cc(C)n(-c3ccc(N4CCOCC4)c([N+](=O)[O-])c3)c2C)cc1	0.9	-3.6	-1	i	-9	-6	6	-3.9	.	18
Cc1ccc(C(=O)N2CCN(S(=O)(=O)N3CCCCC3)CC2)cc1	0.0	6.3	-12	i	-4	5	4	1.5	-3	-7
Cc1nccc(-c2cccc(N/N=C(\C#N)C(=O)c3ccccc3)c2)n1	2.0	4.0	3	i	14	-12	-29	-2.1	37	31
CCn1cc(C(=O)N[C@H](C)c2ccccc2)c(=O)c2cc(F)c(N3CCN(C)CC3)cc21	.	1.3	26	.	-5	.	.	.	1	6
CSc1nncc(/C(C)=N\Nc2ccccc2C)n1	.	-3.7	-1	.	1	.	.	.	-13	6
Cc1cccc(OC(=O)c2cccnc2)c1	.	-2.5	-4	.	-16	.	.	.	-15	-12
COc1ccc(Oc2c(-c3ccc(O)cc3O)n[nH]c2C)cc1	.	3.3	-5	.	5	.	.	.	90*	-5
O=C(NCC1COc2ccccc2O1)c1ccc(Cl)cc1 (centres undefined)	.	?	10	.	-8	.	.	.	-10	-2
CCN(C1CCCCC1)S(=O)(=O)c1ccc(-n2cnnn2)c(C)c1	-2.2	-0.4	-6	i	-5	2	-1	2.6	-2	-13
CN[C@H](CC(=O)O)C(=O)O	-4.2	-3.7	-15	i	.	.	.	.	0	-6
COCCN(C(=O)C1CCCC1)c1c(N)n(Cc2ccccc2)c(=O)[nH]c1=O	-2.3	0.4	-12	i	1	12	7	-6.3	-3	-6
COc1ccc(C(=O)N2CCc3cc(OC)c(OC)cc3C2c2ccc(OC)c(OC)c2)cc1 (centres undefined)	6.2	2.3	3	i	5	-19	-11	-5.7	-5	-2
CN(CCC#N)C(=O)COC(=O)c1ccc(Cl)c(S(N)(=O)=O)c1	.	3.7	-13	.	-13	.	.	.	-5	1
Cc1cc(C(=O)N2CCOCC2)c(C)o1	-2.1	-2.2	-5	i	-4	4	8	-1.4	0	-7
CN1CCN(c2ccc(-c3cccc(NC(=O)COc4ccc(Cl)cc4)c3)nn2)CC1	0.8	-2.0	42	i	6	-30*	-21*	2.2*	-3	.
CCOC(=O)c1cc(-c2cccs2)nc2onc(C)c12	.	?	-17	.	-8	.	.	.	0	2
CCC(=O)Nc1nc(C)c(-c2csc(Nc3cccc(O)c3)n2)s1	-18	-3.1	-8	i	-1	-2	-4	7.4	25	-5
O=C(O)CCCC(=O)Nc1ccc(Cl)c(Cl)c1	.	-2.0	-11	.	-4	.	.	.	-5	-3
Cc1ccc(S(=O)(=O)CCSc2ccc(C(F)(F)F)cn2)cc1	-3.0	4.6	-14	i	0	19	18	0.9	-1	6
Cc1cccc(C)c1OCCCn1ccnc1	3.4	3.4	-7	i	-2	14	10	2.0	2	0
O=C1S/C(=C\c2ccc(N3CCOCC3)o2)C(=O)N1c1ccccc1	-2.4	-2.2	-25	.	29	16	7	8.4	13	.
O=C(NCc1cccnc1)C1CCCN(S(=O)(=O)c2ccccc2)C1 (centres undefined)	-0.3	6.5	-12	i	4	4	14	-1.7	-17	2
The results go on.
SMILES	MLL AF4-AF9 inh	RanGTP-Impb inh	T cruzi inh	FGF22 binding	Calb FLC	Ecoli rRNA inh	Ecoli rRNA inh OD600	Ecoli rRNA inh RFP	ALR H2O2 inh	Beta cell apopt
Cc1cc(C)cc(NC(=O)COC(=O)c2n[nH]c3ccccc23)c1	-0.5	0.0	-3	i	4	-3	3	-0.5	.	0
COc1ccc(OC)c(C2Nc3c(Cl)ccc(C(=O)O)c3C3C=CCC32)c1 (centres undefined)	-0.7	-0.4	2	i	37	-12	-4	1.8	-1	-3
CCCc1nc2ccccc2c(C(=O)OC(C)C(=O)NCc2ccc3c(c2)OCO3)c1CC (centres undefined)	.	1.5	17	.	-21	.	.	.	.	7
O=[N+]([O-])c1ccc(NCc2ccncc2)cc1	-3.8	7.6	2	i	3	10	18	5.8	.	2
CCOC(=O)c1nc(N)c(=O)n(-c2ccc(C)cc2)n1	.	2.7	-4	.	1	.	.	.	-6	6
COc1ccc(Cl)cc1NC(=O)CNc1ccccc1N1CCOCC1	0.5	1.6	5	i	-20	-28	-43	-7.8	-4	2
O=C(Nc1cc(C(F)(F)F)ccc1N1CCOCC1)C1CC1	0.6	.	.	i	.	9	10	-1.6	-2	-5
CCOC(=O)Cc1nnc(NC(=O)c2ccccc2OCC)s1	.	3.2	-5	.	-7	.	.	.	-14	-4
Cc1ccc(C)c(NC(=O)CS(=O)(=O)c2cccc3nsnc23)c1	-2.0	4.6	-1	i	6	-4	-8	-4.7	0	-8
CS(=O)(=O)c1nc(S(=O)(=O)c2ccc(Cl)cc2)c(N2CCC3(CC2)OCCO3)s1	-0.9	23	20	i	-3	3	3	0.1	-1	-5
CC(=O)N(C(C)=O)N1C(=O)c2cccc3c(N4CCOCC4)ccc(c23)C1=O	-2.5	1.6	15	i	18	78	2	1.5	.	-3
O=C(CC(C(=O)O)c1ccccc1)Nc1ccccc1 (centres undefined)	.	-3.9	-4	.	-5	.	.	.	17	-7
COC(=O)c1cc(Cl)c(NC(=O)c2ccco2)cc1OC	.	-0.8	11	.	1	.	.	.	-16	-1
Cc1c(C)c2ccc(OCC(=O)NCCCn3ccnc3)c(C)c2oc1=O	2.3	4.8	-6	i	11	-8	-12	0.8	-11	7
Cc1cccc(C)c1OCc1nnc(SCC(=O)Nc2cccc(C(=O)N3CCOCC3)c2)n1C	3.5	1.1	3	i	4	-8	0	-1.0	-6	6
COc1ccccc1N(C)S(=O)(=O)c1ccc(Cl)c(C(=O)NCc2cccnc2)c1	-0.7	0.8	-6	i	-1	-4	-6	-1.2	.	.
CN(C)/C=C/C(=O)c1ccc2noc(-c3ccc(F)cc3)c2c1	-0.2	3.4	9	i	7	-1	7	1.5	3	-11
CSc1ncccc1C(=O)OCC(=O)c1ccc(Br)s1	0.7	-2.2	-1	i	5	-1	3	-0.5	-5	-5
CCOC(=O)c1ccccc1NCN1C(=O)CSC1=O	.	?	-15	.	-13	.	.	.	-8	-1
Cc1ccc(NC(=S)N(CCN(C)C)Cc2cc3cc(C)cc(C)c3[nH]c2=O)cc1	8.1	2.0	-14	i	?	3	-8	4.0	.	-7
Cc1ccc([C@@H]2[C@@H]3C(=O)N(C)C(=O)[C@@H]3[C@]3(C)C(=O)N(Cc4ccc(-c5ccccc5)cc4)CC(=O)N23)o1	-37	-0.7	6	i	-3	.	.	.	-11	7
CC1Cc2ccccc2N1C(=O)CCNS(=O)(=O)c1ccc2c(c1)CCC(=O)N2 (centres undefined)	.	1.3	-10	.	-3	.	.	.	.	-4
COc1ccc(N2CCN(C(=O)[C@@H](NC(=O)c3cc(OC)cc(OC)c3)C(C)C)CC2)cc1	-0.5	6.4	37	i	-6	2	6	-1.8	0	0
Cc1ccc(N(Cc2ccccc2)C(=O)c2cccc(F)c2)cc1	0.0	-2.1	18	i	-9	-31	-57	13	-8	1
COc1ccc2c(Cl)c(-c3nnco3)sc2c1	.	3.6	0	.	3	.	.	.	-28	1
Next structures follow:
SMILES	MLL AF4-AF9 inh	RanGTP-Impb inh	T cruzi inh	FGF22 binding	Calb FLC	Ecoli rRNA inh	Ecoli rRNA inh OD600	Ecoli rRNA inh RFP	ALR H2O2 inh	Beta cell apopt
COc1ccc(S(=O)(=O)NCc2ccc(C(=O)NCCCN3CCCC(C)C3)cc2)cc1 (centres undefined)	1.4	10	17	i	-23	3	3	1.1	0	-6
Cc1ccc(NC(=O)C(c2ccccc2)N2CCN(CC(=O)NC3CC3)CC2)cc1 (centres undefined)	1.8	.	.	i	.	11	16	1.7	0	-1
Cc1cc(C)n(C(=O)COc2ccccc2[N+](=O)[O-])n1	1.1	-1.4	-13	i	-12	1	-1	1.2	2	0
CCN1C(=O)N[C@@H](CCc2ccccc2)[C@H](C(=O)OC)[C@H]1C	-0.5	-4.9	1	i	-15	-1	-5	-1.8	-5	2
COCCNC(=O)COc1ccc(Nc2ccccc2)cc1	.	7.4	4	.	4	.	.	.	99*	-2
CN1C(=O)c2ccc(NC(=O)c3ccc(Cl)cc3Cl)cc2C1=O	-0.3	-1.7	-10	i	1	11	12	-0.1	-4	.
O=C(O)CCn1cc(C(=O)O)c(-c2ccccc2)n1	-13	4.0	-15	i	19	5	4	-5.2	-12	5
O=C(NCc1ccco1)c1ccc(S(=O)(=O)N2CCCc3ccccc32)cc1	.	0.1	45	.	5	.	.	.	-8	-7
COc1ccc(C2=NC(C)(C)Cc3cc(OC)c(OC)cc32)cc1	-0.7	-2.2	-11	i	6	5	13	-1.2	0	3
Cc1cccc(NC(=O)CSCC(=O)N(C)Cc2ccc(Cl)c(Cl)c2)c1	5.9	.	.	i	.	-40	-71	-6.1	44	4
O=[N+]([O-])c1ccc(NC(=S)NCc2ccncc2)cc1	2.7	-1.5	5	i	3	-28*	-12*	0.8*	18	.
Cc1cnc(NC(=O)CSc2nc3ccccc3c(=O)[nH]2)s1	.	0.2	-16	.	-6	.	.	.	22	-8
CCOC(=O)C(=NC1CCS(=O)(=O)C1)NNc1ccc(Br)cc1 (centres undefined)	15	-1.9	9	i	112*	9	2	2.5	99*	-1
O=C(CSc1nnc(NC2CCCCC2)s1)Nc1ccc2c(c1)C(=O)c1ccccc1C2=O	0.1	-1.4	15	i	9	2	1	-0.4	-19	-2
N#CC1=C(N)Oc2cc(O)ccc2C1c1ccc(Br)s1 (centres undefined)	-5.9	-5.7	-28	i	47	-36	-68	-5.8	1	-4
Cc1ccc(S(=O)(=O)N(C)CC(=O)NCC(=O)Nc2ccc(F)c(F)c2F)cc1	-2.2	.	.	i	.	.	.	.	-7	-2
CC1CN(C(=O)COC(=O)c2ccc(Cl)c(S(=O)(=O)N3CCCCC3)c2)CC(C)O1 (centres undefined)	-0.2	0.2	-6	i	22	-18	-18	-4.3	-4	-5
O=C(c1ccccc1)[C@H]1[C@H](c2ccccc2)[C@@]2(N=C(c3ccccc3)OC2=O)C2c3ccccc3C=NN21 (some centres undefined)	.	0.4	43	.	-1	.	.	.	-4	4
Cc1ccnc(NC(=O)c2sc3cc(Cl)ccc3c2Cl)c1	.	-2.5	14	.	1	.	.	.	9	4
CC(C)CCN1C(=O)c2ccc(-c3nc4ccccc4c(=O)o3)cc2C1=O	.	-0.7	-9	.	24	.	.	.	4	3
COc1ccc(NC(C)=O)cc1CNC(=O)CN1CCOCC1	-3.5	?	-2	.	-4	9	14	0.3	.	.
